OX1R antagonist: human HCRTR1 antagonism; CHO/OX1R cells, Fluo-8 calcium fluorescence, orexin A; inhibition, % at 5 µM; actives 0.43% (n = 330,000);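 active = inhibition above its plate's threshold, mean inhibition of all tested compounds on the plate plus 3 SD, cut at about 37% in these data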;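 note: 0% = orexin A challenge wells and 100% = SB-334867-A antagonist wells; not every result past the cut was called active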
Target sequence (O43613 whole entry, looked up): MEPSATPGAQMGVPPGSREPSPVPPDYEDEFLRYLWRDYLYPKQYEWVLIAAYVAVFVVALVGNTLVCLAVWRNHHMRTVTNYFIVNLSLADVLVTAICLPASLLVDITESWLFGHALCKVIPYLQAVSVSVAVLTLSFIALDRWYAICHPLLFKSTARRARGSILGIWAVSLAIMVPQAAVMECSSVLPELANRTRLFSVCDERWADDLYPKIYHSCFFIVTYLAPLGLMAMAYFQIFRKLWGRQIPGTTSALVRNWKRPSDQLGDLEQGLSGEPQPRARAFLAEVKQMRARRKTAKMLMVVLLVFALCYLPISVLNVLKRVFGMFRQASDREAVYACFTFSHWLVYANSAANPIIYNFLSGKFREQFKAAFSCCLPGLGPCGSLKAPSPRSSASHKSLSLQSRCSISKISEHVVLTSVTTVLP
Active calls of the source: *.

Start of the data: the first four entries (preview)
| mol | OX1R antagonist |
| --- | --- |
| Cc1ccc(OCC(=O)Nc2c3c(nn2C(C)(C)C)CS(=O)(=O)C3)cc1 | -10 |
| C/C(=N/NC(=O)c1ccco1)c1ccc(NC(=O)c2ccc(Br)o2)cc1 | -12 |
| Cc1ccc2nc(-c3ccc(N)cc3)sc2c1 | -13 |
| CCOC(=O)C(=Cc1ccc(-n2cncn2)cc1)C(=O)OCC | -14 |

The listing, from the start:
| mol | OX1R antagonist |
| --- | --- |
| Cc1ccc(OCC(=O)Nc2c3c(nn2C(C)(C)C)CS(=O)(=O)C3)cc1 | -10 |
| C/C(=N/NC(=O)c1ccco1)c1ccc(NC(=O)c2ccc(Br)o2)cc1 | -12 |
| Cc1ccc2nc(-c3ccc(N)cc3)sc2c1 | -13 |
| CCOC(=O)C(=Cc1ccc(-n2cncn2)cc1)C(=O)OCC | -14 |
| O=C(CCc1nnc(-c2ccsc2)o1)N1CCc2c(Cl)cccc2C1 | -17 |
| COc1cc(C(=O)Nc2ccc3c(c2)CCN3C(C)=O)cc(OC)c1OC | -16 |
| O=c1[nH]c2ccccc2c(O)c1-[n+]1ccccc1 | -7 |
| Nc1nc2sc3c(c2c(=O)s1)CCCC3 | -10 |
| CC(C)C1C(C#N)=C(N)Oc2n[nH]c(C(C)(C)C)c21 (configuration not stated) | -2 |
| CCOc1ccc(CN2CCN(Cc3cnc(-c4ccccc4)s3)CC2CCO)cc1 (configuration not stated) | -9 |
| Cc1cc(NCCCN(C)C)n2c(nc3ccccc32)c1C#N | -12 |
| O=C(COC(=O)c1cc([N+](=O)[O-])ccc1N1CCOCC1)Nc1cc(F)ccc1F | -9 |
| COC(=O)c1cccc(NC(=O)CC2NCCNC2=O)c1 (configuration not stated) | -10 |
| CN(CCc1cnn(C)c1)Cc1cn[nH]c1-c1ccc(-c2ccccc2)cc1 | -17 |
| Cc1cc(C)nc(N/N=C/C=C/c2ccccc2)n1 | -6 |
| OCCC1CN(Cc2ccon2)CCN1Cc1ccc(F)c(F)c1 (configuration not stated) | -6 |
| COc1ccc(C2C3=C(CC(C)(C)CC3=O)Oc3ncn(Cc4ccccc4)c(=N)c32)cc1 (configuration not stated) | -20 |
| NS(=O)(=O)c1ccc(CCN2C(=O)/C(=C\c3ccc(Cl)cc3)SC2=S)cc1 | -19 |
| Cc1ccc(C)c(-n2cc(CNCCCn3cccn3)c(-c3ccccc3)n2)c1 | -15 |
| CCS(=O)(=O)NCCc1cc2c(OC)ccc(OC)c2[nH]c1=O | -12 |
| Cc1cnc(NS(=O)(=O)c2ccc(Cl)cc2)c(Br)c1 | -20 |
| OCC1(CCOc2ccccc2)CCN(Cc2ccc3c(c2)OCCO3)CC1 | -32 |
| N#Cc1nc(N)nc(N(c2ccccc2)c2ccccc2)n1 | 11 |
| NC(=O)NC(=O)COC(=O)CCCSc1nc2ccccc2s1 | -13 |
| CS(=O)(=O)Nc1ccc(C(=O)Nc2ccc3ccccc3c2)cc1 | 3 |
| COc1ccc2c3c([nH]c2c1)[C@H]1C[C@H]2[C@H](C[C@@H](O)[C@H](OC)[C@H]2C(=O)O)CN1CC3 | 1 |
| COc1ccc(-c2cnc3ccccc3n2)cc1NC(=O)CNC(=O)c1ccccc1 | -17 |
| O=C(COC(=O)C12CC3CC(CC(C3)C1)C2)Nc1ccc(OC(F)F)cc1 | -15 |
| N#Cc1c(-c2ccco2)c2c([nH]c1=S)CCCC2 | -25 |
| O=C(CCCN=C1NS(=O)(=O)c2ccccc21)OCc1ccccc1 | -4 |
| CN(C)c1oc(/C=C/c2cccs2)nc1S(=O)(=O)c1ccccc1 | -9 |
| COc1ccc(C(C)NC(=O)C2CCCC2)cc1 (configuration not stated) | -8 |
| C/C(=N\Nc1ccccc1Cl)c1ccc(-n2ccnc2)cc1 | -19 |
| CC(=O)N1CCCN(C(=O)c2ccc3nc(Cc4ccccc4F)oc3c2)CC1 | -7 |
| CCOC(=O)C1(Cc2ccc(OC)cc2)CCN(C(=O)c2ccc3[nH]ccc3c2)CC1 | -23 |
| Cc1ccc(C)c(OCCN2C(=O)NC3(CCc4ccccc4C3)C2=O)c1 (configuration not stated) | -37 |
| O=C(c1sc2ccccc2c1Cl)N1CCN(c2ccccn2)CC1 | -13 |
| Cc1ccc(NC(=O)CCc2c(C)nn(-c3ccc(N4CCOCC4)nn3)c2C)cc1C | -32 |
| CCOC(=O)N1CCC(NC(=O)C2CCN(c3ccc(N4CCOCC4)nn3)CC2)CC1 | -19 |
| COc1ccc(-c2nn3c(-c4ccco4)nnc3s2)cc1OC | -9 |

6 entries picked at random from the list so far, as already listed:
| mol | OX1R antagonist |
| --- | --- |
| OCCC1CN(Cc2ccon2)CCN1Cc1ccc(F)c(F)c1 (configuration not stated) | -6 |
| CCOC(=O)C1(Cc2ccc(OC)cc2)CCN(C(=O)c2ccc3[nH]ccc3c2)CC1 | -23 |
| N#Cc1c(-c2ccco2)c2c([nH]c1=S)CCCC2 | -25 |
| Cc1cc(C)nc(N/N=C/C=C/c2ccccc2)n1 | -6 |
| NS(=O)(=O)c1ccc(CCN2C(=O)/C(=C\c3ccc(Cl)cc3)SC2=S)cc1 | -19 |
| Cc1cnc(NS(=O)(=O)c2ccc(Cl)cc2)c(Br)c1 | -20 |

(list continues)
| mol | OX1R antagonist |
| --- | --- |
| Cc1sc(C(=O)Nc2ccc3ccccc3c2)cc1CC(=O)O | -3 |
| O=C(NC(=S)Nc1ccc(S(=O)(=O)Nc2nccs2)cc1)c1cccc(F)c1 | -15 |
| CCOc1ccc(CNc2nnnn2C)cc1OC | -13 |
| COc1ccc(NC(=O)CSc2nc3ccccc3c(=O)n2-c2ccc3c(c2)OCO3)c(OC)c1 | -22 |
| O=c1cnnc(Nc2ccccc2)[nH]1 | -13 |
| O=c1[nH]nc(CSCc2ccccc2Cl)[nH]1 | 6 |
| CCOC(=O)C1Cn2c(nc3c(c2=O)C2(CCCC2)Cc2ccccc2-3)S1 (configuration not stated) | -27 |
| CC(C)=CCC/C(C)=C/CC/C(C)=N/O | -14 |

Going on with the list:
mol,OX1R antagonist
CC(=O)c1ccc(N2CCN(C(=O)Nc3ccc(C)cc3)CC2)cc1,12
CCN(CC)CCOC(=O)c1ccc(Cl)cc1,-11
N#CC1=C(N)N2C(=C(C#N)C13CCN(Cc1ccccc1)CC3)Nc1ccccc12,-5
CCCC1CCC(c2ccc(/C(N)=N/O)cc2)CC1 (configuration not stated),-14
CCCCN(CCCC)CCNC(=O)c1cn(C)c2ccc(S(=O)(=O)N3CCCC3)cc2c1=O,1
Cc1nc(C)n(CC(O)COc2ccc3c(c2)CCC3)n1 (configuration not stated),3
O=C(O)CC(=O)Nc1ccc(Oc2ccc(C(F)(F)F)cn2)c(Cl)c1,-22
COc1ccc(CC2C(=O)OC(C)(C)OC2=O)c(Cl)c1OC,-16
CCC(=O)n1nc(-c2ccc(Cl)cc2)nc1N,-19
CCCCn1c(=S)[nH]c2ncccc2c1=O,-18
Cc1ccc(/C(N)=N/OC(=O)N2CCOCC2)cc1,-18
CCOc1ccc(C2C(C(=O)c3ccco3)=C(O)C(=O)N2Cc2cccnc2)cc1 (configuration not stated),-6
CCCNC(=O)N1c2ccccc2Sc2ccccc21,-22
Cc1cc(C=O)c(C)n1-c1cc(C(F)(F)F)ccc1N1CCOCC1,-25
O=C(CC(=O)Nc1ccc(Cl)cc1)N/N=C\c1cccc(F)c1,-5
Cc1ccc(-n2ncc(C(=O)NC3CC3)c2C2CCN(C(=O)OC(C)(C)C)CC2)c(C)c1,-26
COc1ccc(/C=N/NC(=O)CCNc2n[nH]c(=O)[nH]c2=O)c(OC)c1,8
O=C(NCc1ccccc1Cl)c1cc([N+](=O)[O-])ccc1Cl,-5
COc1ccc(N(CC(=O)N2CCC(C(N)=O)CC2)S(=O)(=O)c2ccccc2)cc1,5
Cc1cc(C)nc(NC(=O)c2c(-c3c(Cl)cccc3Cl)noc2C)n1,-7
O=S(=O)(c1ccc(Cl)cc1)n1nnc2ccccc21,-9
Cc1cnc(C(=O)Nc2nnc(SCc3c(Cl)cccc3Cl)s2)cn1,-26
CCOC(=O)c1c2c(n(C)c1COC)C(=O)C(=O)c1ccc(Br)cc1-2,-2
CCC1C(=O)CC(c2ccc([N+](=O)[O-])cc2)NC1c1ccc([N+](=O)[O-])cc1 (configuration not stated),-15
O=C(NCCN1CCN(c2ccccc2)CC1)c1cccn2c(=O)c3cc(Cl)ccc3nc12,-15
CCOc1ccccc1N(CC(=O)NC1CCCC1)C(=O)CNC(=O)c1cccs1,-9
CC(C)[C@H](NC(=O)[C@@H]1CSC2c3ccccc3C(=O)N21)C(=O)NC1CCCCC1 (some centres not stated),-18
COCCNC(=O)C1CC(c2ccc(F)cc2)=NO1 (configuration not stated),-10
c1ccc(Oc2cccc(OCCCCSc3ncccn3)c2)cc1,1
COc1ccc(/C=N/N=C2\SC(CC(=O)O)C(=O)N2c2ccccc2)cc1 (configuration not stated),9
Cc1ccnc(NC2(C(F)(F)F)N=C(c3ccccc3)NC2=O)c1 (configuration not stated),-25
COc1cccc(CN2C(=NC(=O)C3CC3)SC3CS(=O)(=O)CC32)c1 (configuration not stated),-10
C[C@@H]1CN(c2nc3nonc3nc2N2CCSCC2)C[C@H](C)O1,-19
O=S(=O)(Cc1nc2ccccc2s1)c1ccccc1,-17
CC(C)(C)c1ccc(OC(=O)c2ccc3snnc3c2)cc1,-2
COc1cccc(N/C(SCc2ccccc2Cl)=C(/C#N)C(=O)NCc2cccs2)c1,22
Cc1ccc(N(C)C(=O)C2CCCN2S(=O)(=O)c2cccc3nsnc23)cc1 (configuration not stated),-10
CC(=O)NCC1CCN(C(=O)C2CCC(=O)N(CCc3cccc(F)c3)C2)CC1 (configuration not stated),-3
CCOc1c2c(nc3ccc(Cl)cc13)CCC2,-10
COc1ccc(NC(=O)CSc2nnc(-c3cnccn3)n2C)cc1OC,-7
CCOC(=O)N1CCN(c2ccc(C(C)=O)cc2F)CC1C (configuration not stated),8
CC1CCN(C(=O)CSc2nnc3c(n2)[nH]c2ccc(F)cc23)CC1,-8
CNc1nc2[nH]c(=O)c3c(c2s1)OC(N)=C(C#N)C3c1cccc(F)c1 (configuration not stated),-24
C#CCOCCOCCOCCNc1nc(N2CCN(C(=O)[C@H](CCCCN)n3cc(C(N)CO)nn3)CC2)nc(N2CCN(C(=O)[C@H](CCC(=O)O)n3cc(C(N)[C@H](C)CC)nn3)CC2)n1 (some centres not stated),-8
Cc1cc2ccccn2c1C(=O)c1nc(N2CCOCC2)ncc1Cl,-25
Cc1c(CN(C)C)c2c(n1C)C(=O)c1ccc(Br)cc1-2,-11
COc1ccc(CN2CCC(=O)N(CCO)CC2)cc1OC,1
CC(=O)/C(=N/Nc1ccc(Br)cc1)N1CCCc2ccccc21,-43
Cc1ccc(C)c(S(=O)(=O)N2CCN(C(=O)CCNS(=O)(=O)c3ccc(C)c(C)c3)CC2)c1,-30
COc1cccc(C(=O)NCC(=O)N/N=C/c2cccc(OC(=O)c3ccc([N+](=O)[O-])cc3)c2)c1,-14

Next section:
mol,OX1R antagonist
CCc1ccccc1NC(=O)c1ccc2nc(N3CCOCC3)sc2c1,-15
Cc1cc(N/N=C/c2ccc(F)cc2)nc(NCc2ccccc2)n1,-29
CC(=O)c1cc2c(s1)-c1cc(F)ccc1OC2,-17
Cc1cc(SCC(=O)NC2CCCCC2)nc2ccccc12,-1
O=C(NCc1ccco1)c1cnn2c(C(F)(F)F)cc(-c3ccco3)nc12,-11
CCN(CC)CC(=O)NC1CCCc2c1cnn2-c1cc(F)cc(F)c1 (configuration not stated),-12
O=C(c1ccc2snnc2c1)N1CCSCC1,0
CC1CC(C)CN(C(=O)CSC2=Nc3ccccc3C3=NC(Cc4c[nH]c5ccccc45)C(=O)N23)C1 (configuration not stated),-28
CC(C)N1C(=O)CCC1C(=O)O (configuration not stated),-14
CN1C2CCC1CC(NS(=O)(=O)c1ccc(C#N)cc1)C2 (configuration not stated),-2
Cc1nc2c3cc(F)ccc3n(Cc3ccccc3)c2s1,-28
COc1ccc(NC(=O)c2csc(Cc3ccccc3)n2)cc1,-23
Cc1nc2sc(C(c3ccc(Cl)cc3)N3CCN(CCO)CC3)c(O)n2n1 (configuration not stated),9
CCc1ccc(C(C)NC(=O)c2cccs2)cc1 (configuration not stated),-17
O=C(CN1CCN(Cc2ccccc2)CC1)N1CCCCCC1,6
CCCCn1c(SCC(=O)NC2CC(C)(C)NC(C)(C)C2)nc2cc(S(N)(=O)=O)ccc21,-8
Cc1nn(-c2ccccc2)cc1C(=S)Nc1ccccc1,-10
O=C(Nc1ccncc1)c1ccc2ncsc2c1,-9
CN(Cc1ccccc1)C(=O)NC1CCCCC1,-18
Cc1c(N=C2NC(=O)C(CC(=O)Nc3ccc(Cl)cc3)S2)c(=O)n(-c2ccccc2)n1C (configuration not stated),-19

Shown with the structure last: 2 of the compounds above.
| OX1R antagonist | compound |
| --- | --- |
| -13 | O=C(c1sc2ccccc2c1Cl)N1CCN(c2ccccn2)CC1 |
| -32 | Cc1ccc(NC(=O)CCc2c(C)nn(-c3ccc(N4CCOCC4)nn3)c2C)cc1C |

(cont.)
mol,OX1R antagonist
COc1cccc(NC(=O)CN2C(=O)C3(OCCCO3)c3ccccc32)c1,-19
CCN(CC)CC(=O)Nc1sc(C)c(C)c1C(=O)c1ccc(C)cc1,-34
COc1ccc(CCNS(=O)(=O)c2ccc(Br)s2)cc1,7
Cc1cccc(NC(=O)c2cc(S(=O)(=O)N3CCCCC3)c[nH]2)c1C,1
Cn1cccc1/C=C(/C#N)C(N)=S,4
CCN(CC)S(=O)(=O)c1ccc(C(=O)Nc2c3c(nn2C(C)(C)C)CS(=O)(=O)C3)cc1,-5
O=C1Nc2ccc(Cl)cc2C(=O)C1(F)c1ccccc1 (configuration not stated),-18
O=C(Nc1nccs1)c1cc(-c2ccco2)nc2ccccc12,-19
CC(C)COc1nc2ccccc2c(=O)n1OCC(=O)O,-12
COC(=O)C1=C(C)NC(=O)C1(NS(=O)(=O)c1ccc(C)cc1)C(F)(F)F (configuration not stated),-2
Cc1ccc(S(=O)(=O)Nc2nc3n(n2)C(c2ccc(Cl)cc2)CC(=O)N3)cc1 (configuration not stated),-19
O=C(Cn1c(N2CCN(C/C=C/c3ccccc3)CC2)nc2ccccc21)c1ccccc1,-35
NCCC(=O)N1c2ccccc2Sc2ccc(Cl)cc21,-19
CC(C)Oc1ccc(CSc2ncn[nH]2)cc1,-13
COc1ccc(C=C2C(=O)c3ccccc3C2=O)cc1O,-9

The list is partial, and most or all hits are left out here.
